Ba CapD inh: inhibitors of Bacillus anthracis CapD enzyme; z-score (concentration not given with the values); purified CapD enzyme, fluorescence intensity read-out; active compounds read low; some hits fall short of the stated cut; 140,000 compounds, 0.23% hits; AID 492967;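 active = z-score under -4 in either of two replicates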;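 also: stock transfer was 100 nL into about 40 µL; score is relative to mean and spread of the plate; one replicate is shown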
AID504770: E. coli YBA685 growth inhibition, screen for V. cholerae RctB inhibitors | E. coli YBA685 rctB-dependent plasmid, OD600 growth, 3 h; active compounds read low | z-score (no concentration beside the values) | 130,000 compounds, 0.27% hits | AID 504770;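 active = z-score under -2 on both plates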;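 also: wells of about 30 µL received 100 nL stock; score is relative to mean and SD of the test wells; the first replicate is given; strong numbers were not always called active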
Active calls of the source: *; . = no result given. Not all compounds are listed, so the mix of outcomes need not match the whole.

SMILES | Ba CapD inh | AID504770
CCN1C(=O)C(O)(c2c[nH]c3ccccc23)c2ccccc21 (centres undefined) | 0.97 | 0.25
CC(Sc1ccccc1)C(=O)Nc1ccc(N2CCOCC2)cc1 (centres undefined) | . | 0.35
C=C(C)c1cccc(C(C)(C)NC(=O)N2c3ccc(F)cc3CCC2C)c1 (centres undefined) | 0.71 | 1.1
Nn1c(SCc2cc(=O)n3ccsc3n2)nnc1-c1ccc(Cl)cc1Cl | . | -0.35
O=C(COC(=O)CCc1nnc(-c2ccccc2)o1)Nc1ccc(F)cc1 | . | -0.5
CCCC(CCC)C(=O)Nc1ccc2c(c1)Nc1ccccc1CC2 | 5.9 | .
O=C1c2ccccc2C(O)N1c1cccnc1 (centres undefined) | 14 | -0.65
Cc1cc(S(=O)(=O)N2CCN(CC(=O)N(C)c3ccccc3)CC2)c(C)cc1Cl | 0.39 | .
COC(=O)CCC(=O)Nc1ccc(S(=O)(=O)Nc2cc(C)cc(C)c2)cc1 | -0.2 | -0.75
Cc1cc(C)c2[nH]c(=O)c(CN(CC3CCCO3)C(=O)NC3CCCCC3)cc2c1 (centres undefined) | . | -0.65
C=C1SC(Nc2cc(OC)cc(OC)c2)=NC1(C)C | 0.06 | .
COc1ccc(/C=C/C(=O)O)cc1S(=O)(=O)N1CCCC1 | . | -0.3
CCNc1nc(NCC)n2c(SC(C)C(=O)c3ccc(C)cc3)nnc2n1 (centres undefined) | . | -0.05
NS(=O)(=O)c1ccc(CCNc2ncnc3c2cnn3-c2ccccc2)cc1 | -0.19 | .
Cc1cc(=O)n2nc(N3CCCC3C(=O)Nc3cccc(F)c3)sc2n1 (centres undefined) | -0.1 | -0.65
CCOc1ncccc1C(=O)Nc1cccc(C(F)(F)F)c1 | -0.15 | 1.1
Clc1cccc(NCc2cn3ccccc3n2)c1 | -0.03 | 0.75
CCOC(=O)c1[nH]c(COC(C)=O)cc1C | 6.5 | -1
O=C(Cn1ncc2c(=O)oc3ccccc3c21)N1CCN(C2CCCCC2)CC1 | 0.6 | -0.05
CN(c1ccccc1)S(=O)(=O)c1ccc2[nH]c(=O)oc2c1 | . | 0.05
O=C1OC(Nc2ccccn2)c2ccccc21 (centres undefined) | . | 1.9
CCOc1ccccc1NC(=O)CSc1nnc(C(CO)NC(=O)c2ccc(OC)cc2)n1C (centres undefined) | -0.035 | -0.45
Cc1ccc2c(c1)C(c1ccccc1)NCC(=O)N2 (centres undefined) | 0.41 | 1.1
O=C(NN1C(=O)C2C3C=CC(C4CC34)C2C1=O)C1CC1(c1ccccc1)c1ccccc1 (centres undefined) | -0.18 | .
COc1cccc(-c2nnn(-c3nc(CN4CCCCC4)nc4sc5c(c34)CCCC5)n2)c1 | . | 1.2
COc1cc(-c2[nH]nc3c2C2(C(=O)N(CC(=O)O)c4ccccc42)C(C#N)=C(N)O3)cc(OC)c1OC (centres undefined) | 0.28 | .
Cc1ccc(-n2c(SCc3nc(N)nc(N)n3)nnc2-c2ccccc2)cc1C | . | 0
O=C(N1CCOCC1)N1CCN(S(=O)(=O)c2ccccc2)C1 | . | 0.85
COc1cc(/C=C2\SC(=Nc3ccc4c(c3)OCO4)N(c3ccc4c(c3)OCO4)C2=O)ccc1O | -0.59 | .
COc1ccc(/C=c2\s/c(=C\C#N)n(C)c2=O)cc1 | . | -0.1
O=C(/C=C/c1ccc(OC(F)F)cc1)OC1CCCC1=O (centres undefined) | . | 0.25
COC(=O)c1ccc(COC(=O)CN2C(=O)C3CC=CCC3C2=O)cc1 (centres undefined) | . | 0.5
CCOC(=O)c1sc(SC)c2c1CC(c1ccc(OC)cc1)CC2=O (centres undefined) | -0.15 | 2.8
CCC1(C)N(O)C(C)C(c2ccccc2)=[N+]1[O-] (centres undefined) | 0.065 | -0.55
O=c1c2sc3ccccc3c2n(CCN2CCOCC2)c(=O)n1Cc1ccccn1 | 5.8 | -0.75
COc1ccc(CCNC(=O)c2cc3nc(-c4cccs4)cc(C(F)(F)F)n3n2)cc1OC | -0.73 | .
C=CCC(O)(CN)CC=C | . | 1.6
Cc1ccc(-c2nc3ccccc3s2)cc1NC(=O)c1ccccc1 | -0.005 | 1.8
CCN1C(=O)c2cccc3c(NC(=O)c4cc(-c5cccs5)nc5ccccc45)ccc1c23 | 0.52 | .
O=C(Nc1ccc([N+](=O)[O-])cc1)c1ccccc1O | -0.78 | .
CC(C)c1ccc(N=Nc2c(O)[nH]c(=O)[nH]c2=O)cc1 | -0.2 | .
O=C1CC(c2ccccc2)CN1Cc1ccccc1 (centres undefined) | 0.02 | 0.3
Cc1ccnc(SCC(=O)N2N=CCC2c2ccccc2)n1 (centres undefined) | 0.59 | 0.3
CCn1c(=O)[nH]c2cc(C(=O)O)ccc2c1=O | 12 | 0.75
COc1ccccc1Cn1c(=S)[nH]c2cc(C(=O)NCCc3ccc(OC)c(OC)c3)ccc2c1=O | -0.31 | .
O=C(OC(Cc1ccccc1)C(F)(F)F)c1ccc(Cl)cc1Cl (centres undefined) | -0.03 | -1.5
Cc1ccc(N2CCN(C(=O)C(C)N3C(=O)c4ccccc4C3=O)CC2)cc1 (centres undefined) | 0.4 | 0.7
CC(=O)N1CCCC(C(=O)O)C1 (centres undefined) | . | -0.15
O=C(OCc1c(Cl)cccc1Cl)c1ccccn1 | 0.11 | -0.25
COc1cc(/C=N/NC(=S)NC2CC3CCC2C3)ccc1O (centres undefined) | 0.42 | .

The last 2 records of the section before come first, to join the parts:
SMILES | Ba CapD inh | AID504770
O=C(OCc1c(Cl)cccc1Cl)c1ccccn1 | 0.11 | -0.25
COc1cc(/C=N/NC(=S)NC2CC3CCC2C3)ccc1O (centres undefined) | 0.42 | .
CC(NC(=O)Cc1cccs1)C(c1cccs1)N1CCN(c2ccccc2)CC1 (centres undefined) | 0.54 | -0.25
O=C(NC1CC1)c1cc(=O)c2ccccc2o1 | 0.28 | 0.1
O=C(NCc1ccccn1)c1cc(-c2ccccc2Cl)nc2ccccc12 | 0.22 | .
COc1ccc(Nc2nc(N)nc(CN3CCC(C)CC3)n2)cc1 | 0.3 | -0.25
Cn1c[n+](/N=C(/[O-])c2ccc(C(=O)ON3C(=O)CCC3=O)cc2)cn1 | -0.57 | 3.6
O=C(COC(=O)c1cccc(S(=O)(=O)N2CCCCC2)c1)Nc1ccccc1 | . | -0.45
Cc1ccc2c(c1)N(C(C)C(=O)O)C(=O)CO2 (centres undefined) | . | -1.4
CC(C)NC(=O)c1nc(-c2cccc(F)c2)n2c1CCCCC2 | -0.47 | -0.25
O=c1cc(-c2ccccc2)nc(Nc2nc3ccccc3o2)[nH]1 | -0.2 | 2.5
CCOc1cc(C2C(C#N)=C(N)Oc3n[nH]c(-c4cccc([N+](=O)[O-])c4)c32)ccc1O (centres undefined) | -0.01 | .
O=S(=O)(c1cccs1)n1cccn1 | 0.29 | -0.6
Cn1c(=N)n(CC(N)=O)c2ccccc21 | -0.17 | 2
CCc1cc2c(=O)c(-c3csc(C)n3)coc2cc1OC(C)C(=O)O (centres undefined) | 4.1 | -0.15
Cc1cc(C)nc(Sc2ccc(OC(=O)N(C)C)cc2)n1 | -0.25 | .
CCN(c1cccc(C)c1)S(=O)(=O)c1ccc2[nH]cc(C(=O)N3CCN(c4ccccn4)CC3)c(=O)c2c1 | -0.58 | .
CN1CC(C(=O)Nc2ccc(I)cc2)CC1=O (centres undefined) | 0.14 | -0.7
C/C(=N\O)C(=O)c1ccc(Cl)cc1 | . | -0.9
CCCCNS(=O)(=O)c1ccc2[nH]c3nc(SCC(=O)Nc4nccs4)nnc3c2c1 | 0.41 | .
FC(F)(F)c1ccnc(-n2ccc(-c3cccs3)n2)n1 | -0.81 | .
CCCNC(=O)c1nc(-c2ccc(Cl)cc2)n2c1CCCCC2 | 0.37 | 1.8
Cc1cc(N)nn1C(=O)CSc1nc2cc(C(=O)NCC3CCCO3)ccc2c(=O)n1Cc1ccco1 (centres undefined) | -0.69 | .
Cn1nc(-c2ccccc2)cc1NC(=O)c1ccccc1C(=O)O | -0.73 | -0.3
O=C1c2ccccc2S(=O)(=O)N1CCS(=O)(=O)c1ccc(Cl)cc1Cl | 0.69 | -0.3
CC1=C(C(=O)Nc2ccccc2F)C(c2ccccn2)C2=C(CC(C)(C)CC2=O)N1 (centres undefined) | 12 | .
C1=C(c2c[nH]c3ccccc23)CC(c2ccccc2)=NN=C1c1ccccc1 | -1.2 | 1.9
COc1ccc(C2(N3CCCC3)Oc3ccccc3C(C#Cc3ccccc3)=C2C)cc1 (centres undefined) | 0.015 | .
Cn1c(=O)c2c(SCC(=O)N3CCCC3)nc(C3CC3)nc2n(C)c1=O | 0.22 | -0.3
CCCn1c(=O)c2sccc2n2c(CCCC(=O)N(C)Cc3ccco3)nnc12 | -0.01 | 1
O=C(OCc1nc2ccccc2s1)c1ccc(Cl)s1 | -0.19 | -0.3
COc1ccc2[nH]c3c(=O)n(CCCC(=O)N4CCCC4)c(=S)[nH]c3c2c1 | -0.26 | -1.7

An excerpt of these results, in markdown.
| SMILES | Ba CapD inh | AID504770 |
| --- | --- | --- |
| CN1CC(C(=O)Nc2ccc(I)cc2)CC1=O (centres undefined) | 0.14 | -0.7 |
| C/C(=N\O)C(=O)c1ccc(Cl)cc1 | . | -0.9 |
| CCCCNS(=O)(=O)c1ccc2[nH]c3nc(SCC(=O)Nc4nccs4)nnc3c2c1 | 0.41 | . |
| FC(F)(F)c1ccnc(-n2ccc(-c3cccs3)n2)n1 | -0.81 | . |
| CCCNC(=O)c1nc(-c2ccc(Cl)cc2)n2c1CCCCC2 | 0.37 | 1.8 |
| Cc1cc(N)nn1C(=O)CSc1nc2cc(C(=O)NCC3CCCO3)ccc2c(=O)n1Cc1ccco1 (centres undefined) | -0.69 | . |
| Cn1nc(-c2ccccc2)cc1NC(=O)c1ccccc1C(=O)O | -0.73 | -0.3 |
| O=C1c2ccccc2S(=O)(=O)N1CCS(=O)(=O)c1ccc(Cl)cc1Cl | 0.69 | -0.3 |
| CC1=C(C(=O)Nc2ccccc2F)C(c2ccccn2)C2=C(CC(C)(C)CC2=O)N1 (centres undefined) | 12 | . |
| C1=C(c2c[nH]c3ccccc23)CC(c2ccccc2)=NN=C1c1ccccc1 | -1.2 | 1.9 |
| COc1ccc(C2(N3CCCC3)Oc3ccccc3C(C#Cc3ccccc3)=C2C)cc1 (centres undefined) | 0.015 | . |
| Cn1c(=O)c2c(SCC(=O)N3CCCC3)nc(C3CC3)nc2n(C)c1=O | 0.22 | -0.3 |
| CCCn1c(=O)c2sccc2n2c(CCCC(=O)N(C)Cc3ccco3)nnc12 | -0.01 | 1 |
| O=C(OCc1nc2ccccc2s1)c1ccc(Cl)s1 | -0.19 | -0.3 |

Other results follow.
SMILES | Ba CapD inh | AID504770
CSc1ccc(S(=O)(=O)Nc2ccc(S(=O)(=O)N3CCCCCC3)cc2)cc1 | -0.21 | -0.9
CC(C)CC(C1=C(O)CCCC1=O)C1=C(O)CCCC1=O | -0.33 | -0.5
Nc1ccc(-c2nc(-c3ccccc3)nc3ccccc23)cc1 | . | -0.75
CC(C)(C)c1ccc(CSCC(=O)Nc2ccccc2C#N)cc1 | -0.3 | 1.4
O=C(NC1CC1)C(Cc1ccccc1)NS(=O)(=O)c1ccccc1F (centres undefined) | . | -0.7
O=C(NCc1ccccc1)c1csc2c1CCCC2 | 0.11 | 0.4
CC(C)c1ccc(C#N)c(SCC(=O)Nc2cccc(C(=O)O)c2)n1 | 0.03 | .
COCCN(C1CCN(C(=O)c2cccc(C(F)(F)F)c2)CC1)S(=O)(=O)c1ccccc1 | -0.27 | .
N#CCS(=O)(=O)c1ccc(Cl)cc1Cl | -0.26 | .
N#CCSc1nc2ccccc2c(=O)n1Nc1ccccc1 | . | 1.2
CCOC(=O)c1cn(-c2ccc(N3CCC(C)CC3)nn2)nc1N | 0.3 | -0.1
COc1ccc(/C=N/c2nc3c(ccc4ccccc43)s2)cc1 | -0.42 | -0.4
CC(=O)Nc1ccc(Br)cc1C(=O)Nc1cc(C(F)(F)F)cc(C(F)(F)F)c1 | -0.53 | .
C=CCn1c(SCC(=O)Nc2cc(OC)ccc2OC)nc2sc3c(c2c1=O)CCCC3 | 0.47 | .
Cc1cc(/C=C(\C#N)C(=O)C(C)(C)C)c(C)n1-c1ccc(I)cc1 | . | 0.45
NC1=NC(=O)/C(=C\c2cc3ccccc3nc2N2CCCCC2)S1 | 1.2 | -0.3
CC1=CCC2C(C)(CC[C@H](O)C2(C)C)C1COc1ccc2ccc(=O)oc2c1 (some centres undefined) | 39 | -0.05
CC(C(=O)NCC1(c2ccccc2)CCCC1)N1CCCC1 (centres undefined) | -0.055 | .
O=c1c2cc(Br)ccc2nc(-c2ccc(Cl)c(Cl)c2)n1O | 0.03 | .
CCCCCCCCS(=O)(=O)c1nnc(-c2ccc(OC)cc2)o1 | 0.13 | .
C1CCN2C(C3N4CCCCN34)N2C1 (centres undefined) | 0.2 | -0.65
CCOC(=O)c1c(C)n(C)c2c1cc(OC(=O)COc1ccccc1)c1ccccc12 | 0.03 | .
C[N+]1(CC(=O)OC2CCCCCCCCCCC2)CCCC1 | -0.01 | -0.6
COC(=O)CC1SC(=O)NC1=Nc1ccc(O)cc1 (centres undefined) | -1.3 | 1.3
COc1ccc(C(=O)N=c2nc3ccccn3s2)cc1 | . | -1.3
CCOc1ccc(S(N)(=O)=O)cc1-c1nc2c(C(C)(C)C)nn(C)c2c(=O)[nH]1 | 0.15 | -0.5
CCCNC(=O)CSc1nc2nc(C)c(Cc3cccc(C)c3)c(C)n2n1 | 0.17 | -0.65
CC1CCc2c(sc(NC(=O)CSc3nnc4ccccn34)c2C#N)C1 (centres undefined) | -0.27 | .
CCCCOc1ccc(C(=O)NCCOC)cc1 | -0.77 | 1.7
COC(=O)c1c2n(c3ccccc3c1=O)CCCS2 | -1.7 | 0
N#CC1=C(NC(=O)CCl)c2ccccc2CC12CCCCC2 | -0.11 | .
CN1C(N)=NC(=O)/C1=C/c1coc2ccccc2c1=O | . | 1.1
CCCC1=NN(C(=O)C(C)(C)C)C(=O)C1Cc1c(F)cccc1Cl (centres undefined) | 0.23 | 0.15

Screening data as filed in PubChem.
